Cruzain inh noDet: blocks cruzain activity in detergent-free assay | 200,000 tested, 2.3% active | Potency, µM, without a hit: max response, negative = inhibition, most hits filed as inhibitors | P25779 | purified cruzain, Z-FR-AMC fluorescence, no detergent | AID 1476;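 note: plate controls were enzyme without inhibitor for no effect and buffer without enzyme for full effect; nearly all actives have a fitted effect of over 40% in size; top concentration of the series not given in the record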
Target sequence (P25779 123-467 limits assumed): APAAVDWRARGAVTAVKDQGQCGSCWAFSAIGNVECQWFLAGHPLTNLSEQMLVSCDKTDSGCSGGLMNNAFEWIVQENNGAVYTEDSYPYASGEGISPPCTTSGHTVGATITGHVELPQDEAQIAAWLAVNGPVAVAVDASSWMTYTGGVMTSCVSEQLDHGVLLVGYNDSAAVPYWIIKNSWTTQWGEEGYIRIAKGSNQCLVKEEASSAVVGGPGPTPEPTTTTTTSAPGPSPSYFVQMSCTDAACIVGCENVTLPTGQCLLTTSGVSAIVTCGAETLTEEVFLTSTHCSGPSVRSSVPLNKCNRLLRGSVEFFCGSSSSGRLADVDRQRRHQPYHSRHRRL
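Purified cruzain at 1.5 nM, pre-incubated 15 min with compound at room temperature in 100 mM sodium acetate pH 5.5, 5 mM DTT, 0.00005% Triton X-100. Reaction started with 2 uM Z-FR-AMC; AMC fluorescence increase over 60 s gives rate.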
LASV entry inh: Lassa virus entry inhibition. Lassa virus pseudotype entry inhibition, cell reporter; control for the full effect not named in the record. Potency, µM (highest dose often 37.9 µM), for the others: at the highest dose activity change, negative = inhibition, most hits filed as inhibitors. 300,000 tested, 1.2% active; active means well fitted inhibition curve with a large enough effect; inconclusive means small, poorly fitted or top-dose-only effect, or effect the other way; inactive means flat fitted curve, though single readings scatter; tested in HEK293 cells; note: % is set by controls: 0 for no effect and ±100 for the full control effect; nearly all actives have a fitted effect of over 50% in size; luciferase read-out
StopGo reporter: FMDV 2A StopGo reporter, luciferase signal; human cells with a luciferase reporter of 2A StopGo recoding; control for the full effect not named in the record; Potency, µM (titrated, usually from 57.9 µM), inactives show at the highest dose signal change, negative = less light; 410,000 tested, 1.2% active; AID 1159524; active = well fitted falling curve with a large enough effect; inconclusive = small, poorly fitted or top-dose-only effect; inactive = no such curve, though single readings can be large or run the other way; tested in HEK293T cells; note: % is set by controls: 0 for no effect and ±100 for the full control effect; nearly all actives have a fitted effect of over 45% in size; luciferase light after 4 h
Marburg entry inh: blocks Marburg virus binding to or entry into cells; Marburg virus pseudotyped entry inhibition, cell reporter; control for the full effect not named in the record; about a third of the inactives were read at about 46 µM; 300,000 tested, 1.8% active; Potency, µM (titrated, usually from 37.8 µM), inactives show top-dose activity change, negative = inhibition, usual class: inhibitors; active = well fitted inhibition curve with a large enough effect; inconclusive = small, poorly fitted or top-dose-only effect, or effect the other way; inactive = flat fitted curve, though single readings scatter; tested in HEK293 cells; about a fifth of its hits are not listed in these tables; note: % is set by controls: 0 for no effect and ±100 for the full control effect; luciferase read-out
RE007 growth inh: less growth of the S. pombe RE007 Vpr strain | S. pombe RE007 Vpr strain, BacTiter-Glo ATP luminescence, 24 h; control for the full effect not named in the record | Potency, µM (top dose mostly 92.2 µM), without a hit: at the top dose activity change, negative = less growth | 360,000 tested, 0.21% active | AID 651644; active = well fitted falling curve with a large enough effect; inconclusive = small, poorly fitted or top-dose-only effect; inactive = no such curve, though single readings can be large or run the other way;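 note: % is set by controls: 0 for no effect and ±100 for the full control effect; nearly all actives have a fitted effect of over 50% in size; the assay follows cell death caused by Vpr and the record does not say whether a fall means rescue or toxicity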
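Fission yeast RE007 carrying one integrated HIV-1 vpr copy, seeded at OD 0.01 in PMG+AL medium with 23 nL pinned compound. Grown 24 h at 30 degrees; viability read by BacTiter-Glo luminescence after 5 min.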
SARS PLP yeast: inhibitors of SARS-CoV papain-like protease in yeast. S. cerevisiae expressing SARS-CoV PLpro, growth rescue; control for the full effect not named in the record. Potency, µM (series often up to 32.9 µM), for inactives: top-dose activity, positive = growth rescue. 330,000 tested, 0.19% active; active means well fitted rising curve with a large enough effect; inconclusive means small, poorly fitted or top-dose-only effect; inactive means no such curve, though single readings can be large or run the other way; note: 0% is about no effect; nearly all actives have a fitted effect of over 55% in size; growth read by luminescence after 48 h
NS1 inh: inhibitors of influenza NS1 protein function; S. cerevisiae slowed by influenza A NS1, growth recovery by OD600; Potency, µM (top dose mostly 46.1 µM), without a hit: at the top dose activity, positive = more growth; 270,000 tested, 0.4% active; active means well fitted rising curve with a large enough effect; inconclusive means small, poorly fitted or top-dose-only effect; inactive means no such curve, though single readings can be large or run the other way; note: nearly all actives have a fitted effect of over 50% in size
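S. cerevisiae expressing influenza A NS1, grown in glucose, washed, then diluted 1:100 into pH 6.0 -URA galactose medium with 23 nl compound. Growth recovery read as OD600; NS1-free strain serves as control.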
Cruzain inh Det: cruzain (T. cruzi) inhibition with detergent; purified cruzain, Z-FR-AMC fluorescence, 0.01% Triton; P25779; Potency, µM, for the others: max response, negative = inhibition, most hits filed as inhibitors; AID 1478; 200,000 tested, 0.43% active;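 note: plate controls were neutral wells for no effect and buffer without enzyme for full effect; nearly all actives have a fitted effect of over 40% in size; top concentration of the series not given in the record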
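15 min RT preincubation of 1.5 nM cruzain with compound, then 2 uM Z-FR-AMC added; kinetic AMC fluorescence, 60 s delta. Triton X-100 0.01%, pH 5.5.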
Numbers without * were called inactive; ? = inconclusive; . = not tested or not shown; & = joins results of further samples; [ ] = dose if it differs, or a comment. Unless noted, calls come from the whole dose curve; as a rule, active = well fitted curve in the direction sought with a large enough effect; inconclusive = small, poorly fitted or top-dose-only effect, or another doubt; inactive = no such curve, though single readings can be large; an effect the other way counts as inactive or inconclusive. Potency is the fitted concentration of half-maximal effect.

Compound	Cruzain inh noDet	LASV entry inh	StopGo reporter	Marburg entry inh	RE007 growth inh	SARS PLP yeast	NS1 inh	Cruzain inh Det
CC(C)NC(=O)CCCn1c(=S)[nH]c2cc3c(cc2c1=O)OCO3	0%	-3%	-2%	16%	17%	?	-4%	0.5%
CCCCC(=O)c1ccc(O)cc1	11%	-1%	.	16%	-16%	6%	6%	7.2%
Cc1ccc(C(=O)Nc2ccc3c(c2)N(C)C(=O)c2ccccc2S3)cc1F	-13%	?	?	.	.	.	.	-5.8%
O=c1cc(N2CCCCC2)c(-c2ccccc2)nn1Cc1ccc(Cl)cc1	-3%	-16%	?	?	-12%	1%	16%	-0.5%
CCOc1ccc2oc(=O)cc(CN3CCOCC3)c2c1	.	-3%	-2%	6%	4%	0%	0%	.
CC1CCN(S(=O)(=O)c2ccc3c(ccc(=O)n3CC(=O)NCc3ccc(Cl)cc3)c2)CC1	-6%	23%[46.1 µM]	0%	.	.	.	.	-7.7%
CCOC(=O)C1CCN(C(=O)COc2ccc(S(=O)(=O)N3CCOCC3)cc2)CC1	.	?	-18%	0%	-7%	1%	7%	.
CC(=O)Nc1ccc(S(=O)(=O)N2CCC(N(C)CCC(C)C)CC2)cc1	1%	5%	7%	?	8%	5%	-9%	4.9%
COC(=O)c1sccc1NC(=O)c1c(C)c(-c2cccc(Cl)c2)nc2ccccc12	?	8%	?	?	-9%	1%	2%	-2.6%
O=C(/C=C\c1ccco1)c1ccc(NC(=O)c2ccco2)cc1	.	?	10%	?	-20%	-3%	1%	.
CC(=O)C1=C(c2ccccc2)NC(=O)NC1c1ccccc1OCC(=O)Nc1ccccc1 (stereo unspecified)	-14%	19%	-9%	9%	9%	-1%	1%	-4.1%
Cc1nn(-c2ccc(Cl)cc2)c2sc(C(=O)N3CCN(c4ccccn4)CC3)cc12	-5%	3%	0%	1%&1%	-8%	1%	-11%	2.9%
COc1cc2c(cc1OC)-c1cc(Nc3cccc(F)c3)nc(=O)n1CC2	.	?	-10%	?	15%	-5%	2%	.
Cc1ccsc1C1Nc2ccc3ncccc3c2C2=C1C(=O)CC(C)(C)C2 (stereo unspecified)	10%	?	-28%	?	0%	11µM*	21%	-14%
O=S(=O)(Nc1nc2ccccc2nc1N1CCc2ccccc2C1)c1ccc(Br)cc1	7.9µM*	?	3%	?	-28%	-69%	-36%	-4.3%
COc1ccccc1NC(=O)CCc1c(C)[nH]c(=O)c(C#N)c1C	-9%	10%	-16%	0%	2%	-6%	?	2.8%
O=C(NC(=S)N1CCCCC1CO)c1cccs1 (stereo unspecified)	.	2%	11%	13%	-9%	12%	.	.
CC(=O)c1cccc(N(C(=O)CNC(=O)c2ccco2)C(C(=O)NC2CCCC2)c2ccncc2)c1 (stereo unspecified)	.	9%	12%	?	-14%	-6%	1%	.
C=CCc1cccc(/C=N/NC(=O)CCCNc2ccc(C)cc2)c1O	15%	?	-3%	?	.	14µM*	1%	-18%
CSc1nnc2c(n1)OC(c1cccc(O)c1Cl)Nc1ccccc1-2 (stereo unspecified)	1%	7%[46.1 µM]	-7%	2%[46.1 µM]	.	.	.	-5.1%
CC(OC(=O)Cn1cnc2ccccc2c1=O)C(=O)N(C)c1ccccc1 (stereo unspecified)	.	-7%[46.1 µM]	6%	-11%	-13%	-2%	.	.
NC/C(=N\O)c1ccc(Cl)cc1Cl	-4%	1%	.	-5%	14%	?	-2%	-3.2%
O=C(OC1CCOC1=O)c1ccc(Cl)c(S(=O)(=O)N2CCCCC2)c1 (stereo unspecified)	.	14%[46.1 µM]	8%	-14%[46.1 µM]	12%	1%	5%	.
COc1ccc(OC)c(NC(=O)CC2SC(=N)N(c3ccccc3)C2=O)c1 (stereo unspecified)	.	.	2%	-8%[46.1 µM]	-11%	0%	.	.
O=C(Nc1ccccc1SCC1CSc2nc3ccccc3c(=O)n21)c1cccc(Cl)c1 (stereo unspecified)	5%	2.5µM*	0%	?	-11%	-1%	-7%	-4.8%
Cn1c(=O)cc(OCCCC(=O)NCc2ccc(F)cc2Cl)c2ccccc21	.	4%	-1%	?	-6%	4%	.	.
Cc1ccc(CCNC(=O)c2ccc(CSc3nc4ccncc4n3Cc3ccc(F)cc3)cc2)cc1	1%	.	?	?	.	.	.	4.6%
CCn1c(SCC(=O)N2CCN(S(=O)(=O)c3ccccc3)CC2)nnc1-c1cccs1	0%	-2%	?	11%&11%	3%	2%	-3%	3.5%
O=C(Cn1nc2c(cc1=O)CCCC2)NCc1ccccc1Cl	3%	0%[46.1 µM]	20%	.	.	.	.	-0.7%
COc1ccc(CN(C)CC(=O)NCC(=O)Nc2c(C)cccc2C)cc1	.	-4%	-13%	22%	0%	-4%	.	.
Cc1cc(C)n(-c2ccc(S(=O)(=O)N3CCCC3)cc2[N+](=O)[O-])n1	.	.	-13%	.	5%	1%	4%	.
CC(C)n1ncc2c(C(=O)Nc3cccc(S(=O)(=O)N(C)C)c3)cc(C3CC3)nc21	.	?	?	?	8%	-8%	.	.
Fc1ccc(CO/N=C2\CCCc3nonc32)cc1	.	6%	28%	8%	9%	0%	.	.
Cc1ccc(NC(=O)Nc2nnc(SCC(=O)N3CCCCC3)s2)cc1	-9%	-3%[46.1 µM]	20%	.	.	.	.	-0.3%
CCCN1CCc2c(sc(NC(=O)c3ccc(S(=O)(=O)N(C)c4ccccc4)cc3)c2C(=O)NC)C1	.	?	-5%	?	-5%	4%	30%	.
O=C(COC(=O)/C=C/c1ccc(C(F)(F)F)cc1)NC1CCS(=O)(=O)C1 (stereo unspecified)	.	16%	-13%	4%[46.1 µM]	-2%	0%	.	.
O=C(Nc1c(-c2ccccc2)nc2ccccn12)c1cccc(F)c1	.	-20%[46.1 µM]	-8%	2%[46.1 µM]	-6%	-1%	-1%	.
COc1ccc(NC(=O)N2CCCC(CCC(=O)N(C)CCc3ccccn3)C2)cc1 (stereo unspecified)	.	4%	-3%	-1%	5%	0%	3%	.
Cc1nc2ncnn2c(C)c1Cc1ccccc1Cl	-10%	.	-18%	.	-1%	17%	8%	5.0%
COc1ccc(CNC(=O)c2cc3c(-c4ccccc4F)nn(C)c3s2)c(OC)c1	?	?	?	-29%[46.1 µM]	.	.	.	1.3%
Cc1cccc(C(=O)OCC(=O)Nc2ccc(F)cc2)c1	.	-23%	-14%	2%[46.1 µM]	13%	-28%	-51%	.
COc1ccc2cc(CCNC(=O)c3ccc(S(=O)(=O)N4CCCC4)cc3)c(=O)[nH]c2c1	.	-18%	-10%	-4%	4%	-4%	9%	.
Cc1ccc(-n2c(SCc3ccc(C#N)cc3)nnc2-c2ccccn2)cc1	6%	-15%	-7%	-10%	9%	-3%	-55%	-5.3%
CCCCC1(C)OC(=O)C(=Cc2ccc(N(CC)CC)cc2)C(=O)O1 (stereo unspecified)	-11%	-2%	0%	6%	-5%	4%	-11%	-3.7%
Cc1nn(-c2nnc(C)c(=O)[nH]2)c(C)c1SCC(=O)Nc1ccc(F)cc1	-11%	-2%	7%	-10%	-14%	0%	1%	2.2%
Cc1ncc(CO)c(CNc2ccc(Oc3ccccc3)cc2)c1O	.	?	-26%	-26%[46.1 µM]	-12%	-10%	-5%	.
COc1ccccc1NC(=O)NNC(=O)c1ccncc1	.	-3%[46.1 µM]	1%	?	12%	.	.	.
CCN(CC)S(=O)(=O)c1ccc(O)c(C(=O)OCC(=O)NC2CCCC2)c1	.	17%	-7%	?	8%	-1%	0%	.
CC1(CCC(=O)N2CCCC(Nc3ccc(F)cc3)C2)CC1 (stereo unspecified)	.	.	-22%	.	0%	-5%	-14%	.
COCCNc1nc(N)c([N+](=O)[O-])c(NCC2CCCO2)n1 (stereo unspecified)	2%	6%	5%	14%	-12%	16%	1%	-8.6%

(more compounds)
Compound	Cruzain inh noDet	LASV entry inh	StopGo reporter	Marburg entry inh	RE007 growth inh	SARS PLP yeast	NS1 inh	Cruzain inh Det
CCCCN(CC)C(=O)Cc1ccc(Br)cc1	5%	1%	-18%	7%	-4%	3%	1%	2.5%
CC(C)(C)NC(=O)CCN(/N=C/c1ccccc1)C1=NS(=O)(=O)c2ccccc21	.	-14%[46.1 µM]	-8%	?	3%	-2%	1%	.
CCN(CC(=O)Nc1c(F)cccc1F)C(=O)C1CCN(S(=O)(=O)c2ccc(F)cc2)CC1	.	-6%	-8%	-28%	-24%	-1%	.	.
CC(=O)c1cccc(NC(=O)NC2CCCCC2)c1	5%	?	143%[activator]	28%	7%	5%	-15%	-0.6%
CCN(C(=O)C(C)OC(=O)CCCNC(=O)c1ccc(Cl)cc1)c1ccccc1 (stereo unspecified)	.	?	-18%	1%	2%	-2%	.	.
CCCCN1CC(C(=O)NCc2ccc(C)cc2)CC1=O (stereo unspecified)	8%	-4%	-8%	2%	7%	2%	-5%	2.8%
CSCC[C@H](NC(=O)OC(C)(C)C)c1nnc(SCC(=O)N(C)C)o1	16%	-2%	-21%	0%	-9%	10%	4%	4.8%
COC(=O)CN(c1ccc(C)cc1)S(=O)(=O)c1ccc(F)cc1	.	5%[46.1 µM]	0%	2%[46.1 µM]	4%	4%	-7%	.
O=C(CNS(=O)(=O)c1ccc(Br)s1)NCCc1ccc(Cl)cc1	.	24%[46.1 µM]	21%	-9%[46.1 µM]	2%	2%	5%	.
CCOC(=O)C1CCC(CN(Cc2ccc(OC)cc2)S(=O)(=O)c2ccc(F)c(C(=O)Nc3cc(Cl)ccc3OC)c2)CC1 (stereo unspecified)	8%	15%[46.1 µM]	-23%	.	.	.	.	0.0%

Compound activity as filed in PubChem.
